# Screening results (PubChem BioAssay)
# NS1 function inh = inhibitors of influenza NS1 protein function; AID 2326; S. cerevisiae slowed by influenza A NS1, growth recovery by OD600; 0.4% of 270,000 active; Potency, µM (series often up to 46.1 µM), for inactives: at the top dose activity, positive = more growth; active means well fitted rising curve with a large enough effect; inconclusive means small, poorly fitted or top-dose-only effect; inactive means no such curve, though single readings can be large or run the other way; further: nearly all actives have a fitted effect of over 50% in size
#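 In this qHTS, NS1 from influenza A is expressed in budding yeast, where it slows growth. Cells are switched from glucose to 2% galactose medium (pH 6.0, -URA), treated with compound, and growth recovery is read at OD600.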
# SARS PLpro yeast = inhibitors of SARS-CoV papain-like protease in yeast | S. cerevisiae expressing SARS-CoV PLpro, growth rescue; control for the full effect not named in the record | Potency, µM (titrated, usually from 32.9 µM), for inactives: at the highest dose activity, positive = growth rescue | 0.19% of 330,000 active; active means well fitted rising curve with a large enough effect; inconclusive means small, poorly fitted or top-dose-only effect; inactive means no such curve, though single readings can be large or run the other way; further: 0% is about no effect; nearly all actives have a fitted effect of over 55% in size; growth read by luminescence after 48 h
# 2A StopGo = lowers the luciferase signal of an FMDV 2A StopGo reporter | human cells with a luciferase reporter of 2A StopGo recoding; control for the full effect not named in the record | Potency, µM (highest dose often 57.9 µM), inactives show top-dose signal change, negative = less light | 1.2% of 410,000 active; active = well fitted falling curve with a large enough effect; inconclusive = small, poorly fitted or top-dose-only effect; inactive = no such curve, though single readings can be large or run the other way; tested in HEK293T cells; further: on the % scale 0 is the no-effect control and ±100 the full control effect; nearly all actives have a fitted effect of over 45% in size; luciferase light after 4 h
# RE007 growth inh = less growth of the S. pombe RE007 Vpr strain; S. pombe RE007 Vpr strain, BacTiter-Glo ATP luminescence, 24 h; control for the full effect not named in the record; Potency, µM (titrated, usually from 92.2 µM), inactives show top-dose activity change, negative = less growth; 0.21% of 360,000 active; AID 651644; active = well fitted falling curve with a large enough effect; inconclusive = small, poorly fitted or top-dose-only effect; inactive = no such curve, though single readings can be large or run the other way;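 further: on the % scale 0 is the no-effect control and ±100 the full control effect; nearly all actives have a fitted effect of over 50% in size; the assay follows cell death caused by Vpr and the record does not say whether a fall means rescue or toxicity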
#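 Fission yeast RE007 carrying one integrated HIV-1 vpr copy, seeded at OD 0.01 in PMG+AL medium with 23 nL pinned compound. Grown 24 h at 30 degrees; viability read by BacTiter-Glo luminescence after 5 min.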
# Marburg entry inh = inhibitors of Marburg virus binding or cell entry; Marburg virus pseudotyped entry inhibition, cell reporter; control for the full effect not named in the record; about a third of the inactives were read at about 46 µM; 1.8% of 300,000 active; Potency, µM (highest dose often 37.8 µM), for inactives: top-dose activity change, negative = inhibition, hits mostly inhibitors; active = well fitted inhibition curve with a large enough effect; inconclusive = small, poorly fitted or top-dose-only effect, or effect the other way; inactive = flat fitted curve, though single readings scatter; tested in HEK293 cells; about a fifth of its hits are not listed in these tables; further: on the % scale 0 is the no-effect control and ±100 the full control effect; luciferase read-out
# Cruzain inh noDet = inhibitors of Trypanosoma cruzi cruzain without detergent. P25779. purified cruzain, Z-FR-AMC fluorescence, no detergent. Potency, µM, for inactives: max response, negative = inhibition, most hits filed as inhibitors. 2.3% of 200,000 active. AID 1476;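 further: plate controls were enzyme without inhibitor for no effect and buffer without enzyme for full effect; nearly all actives have a fitted effect of over 40% in size; top concentration of the series not given in the record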
# Target sequence (P25779 123-467 limits assumed): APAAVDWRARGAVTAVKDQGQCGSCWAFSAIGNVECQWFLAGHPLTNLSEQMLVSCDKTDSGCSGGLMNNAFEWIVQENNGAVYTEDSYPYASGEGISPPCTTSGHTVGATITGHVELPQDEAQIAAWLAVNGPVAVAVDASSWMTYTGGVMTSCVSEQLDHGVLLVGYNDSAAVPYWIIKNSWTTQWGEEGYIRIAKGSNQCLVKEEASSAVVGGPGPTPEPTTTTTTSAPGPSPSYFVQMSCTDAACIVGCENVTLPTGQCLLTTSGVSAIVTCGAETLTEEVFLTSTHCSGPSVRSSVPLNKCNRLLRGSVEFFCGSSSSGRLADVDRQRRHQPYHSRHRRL
#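 Purified cruzain at 1.5 nM, pre-incubated 15 min with compound at room temperature in 100 mM sodium acetate pH 5.5, 5 mM DTT, 0.00005% Triton X-100. Reaction started with 2 uM Z-FR-AMC; AMC fluorescence increase over 60 s gives rate.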
# Cruzain inh Det = inhibitors of Trypanosoma cruzi cruzain with detergent | P25779 | purified cruzain, Z-FR-AMC fluorescence, 0.01% Triton | Potency, µM, for the others: max response, negative = inhibition, usual class: inhibitors | 0.43% of 200,000 active;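 further: plate controls were neutral wells for no effect and buffer without enzyme for full effect; nearly all actives have a fitted effect of over 40% in size; top concentration of the series not given in the record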
#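 Cysteine protease activity tested under reducing, mildly acidic conditions (100 mM sodium acetate pH 5.5, 5 mM DTT) plus 0.01% Triton X-100. Cruzain 1.5 nM; substrate Z-FR-AMC 2 uM; 15 min compound preincubation at room temperature.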
# LASV entry inh = inhibitors of Lassa virus binding or cell entry; 1.2% of 300,000 active; AID 540256; Potency, µM (doses to about 37.9 µM), for inactives: at the top dose activity change, negative = inhibition, usual class: inhibitors; Lassa virus pseudotype entry inhibition, cell reporter; control for the full effect not named in the record; active means well fitted inhibition curve with a large enough effect; inconclusive means small, poorly fitted or top-dose-only effect, or effect the other way; inactive means flat fitted curve, though single readings scatter; tested in HEK293 cells; further: on the % scale 0 is the no-effect control and ±100 the full control effect; nearly all actives have a fitted effect of over 50% in size; luciferase read-out
# Active calls of the source: *; ? = inconclusive; . = not tested or not shown; [ ] = remark or other dose. Unless noted, the call rests on the fitted dose curve; in most records, active means well fitted curve in the direction sought with a large enough effect; inconclusive means small, poorly fitted or top-dose-only effect, or another doubt; inactive means no such curve, though single readings can be large; an effect the other way counts as inactive or inconclusive. Potency means the concentration at half of the fitted maximal effect.
no. | smiles | NS1 function inh | SARS PLpro yeast | 2A StopGo | RE007 growth inh | Marburg entry inh | Cruzain inh noDet | Cruzain inh Det | LASV entry inh
1 | S=C(NCc1ccco1)Nc1ccc(Cl)c(Cl)c1 | -198.4% | -38.8% | . | 5.7% | ? | 3.1% | -3.2% | -9.8%
2 | O=C(CC1C(=O)NCCN1Cc1ccccc1C(F)(F)F)NC1CCCCCC1 (stereo not given) | 19.9% | -21.1% | -19.5% | 7.9% | . | . | . | .
3 | NC(=O)Nc1ccc(C(=O)OCC(=O)NC2CCCc3ccccc32)cc1 (stereo not given) | . | 2.9% | 1.6% | 1.8% | ? | . | . | -2.7%
4 | COCCn1c(SCC(=O)c2ccc3c(c2)OCCO3)nnc1-c1ccco1 | ? | -2.0% | 12.5% | 2.9% | 7.2% | -2.1% | -1.9% | -1.1%
5 | C/C(=N\OC(=O)c1cccc(C(F)(F)F)c1)c1sc(-c2ccccc2)nc1C | -7.7% | -0.4% | 24.9% | -10.7% | 14.7%[46.1 µM] | -1.9% | 9.5% | 24.2%
6 | COC(=O)c1c(NC(=O)CCCOc2ccc(C(C)(C)C)cc2)sc2c1CCC(C)C2 (stereo not given) | . | . | 5.8% | . | . | 5.6% | -1.4% | 21.3%[46.1 µM]
7 | CC(C)(C)c1n[nH]c(=S)n(/N=C/c2cccs2)c1=O | 2.4% | 11.3% | -27.0% | 10.5% | 12.5% | 5.0% | -3.9% | 1.2%
8 | Cc1ccc(N(Cc2cc3ccccc3[nH]c2=O)C(=O)c2ccco2)c(C)c1 | 3.8% | 1.0% | -22.6% | 5.0% | -15.4% | -9.3% | -6.9% | ?
9 | CC1Cc2cc(/C(O)=C3\C(=O)C(=O)N(Cc4ccncc4)C3c3ccccc3F)ccc2O1 (stereo not given) | 10.6% | 5.5% | 9.0% | -2.7% | 6.4%[46.1 µM] | . | . | -4.5%[46.1 µM]
10 | CCOc1ccc(C(=O)NC(=S)N(Cc2ccccc2)Cc2ccccc2)cc1 | 0.2% | -1.2% | 35.0%[activator] | -6.1% | ? | ? | -1.8% | ?

# Laid out differently: results already given
# Every second line gives: NS1 function inh	SARS PLpro yeast	2A StopGo	RE007 growth inh	Marburg entry inh	Cruzain inh noDet	Cruzain inh Det	LASV entry inh
1) S=C(NCc1ccco1)Nc1ccc(Cl)c(Cl)c1
    -198.4%	-38.8%	.	5.7%	?	3.1%	-3.2%	-9.8%
2) O=C(CC1C(=O)NCCN1Cc1ccccc1C(F)(F)F)NC1CCCCCC1 (stereo not given)
    19.9%	-21.1%	-19.5%	7.9%	.	.	.	.
3) NC(=O)Nc1ccc(C(=O)OCC(=O)NC2CCCc3ccccc32)cc1 (stereo not given)
    .	2.9%	1.6%	1.8%	?	.	.	-2.7%

# More records:
no. | smiles | NS1 function inh | SARS PLpro yeast | 2A StopGo | RE007 growth inh | Marburg entry inh | Cruzain inh noDet | Cruzain inh Det | LASV entry inh
11 | COc1cc(C(=O)NC(C(=O)Nc2cccc(C(C)=O)c2)C(C)C)cc(OC)c1OC (stereo not given) | . | 1.9% | -9.8% | 7.7% | -3.2%[46.1 µM] | . | . | -14.3%
12 | COc1cccc(CC(=O)N2CCC(n3nccc3NC(=O)C3CCOC3)CC2)c1 (stereo not given) | -0.4% | -0.5% | -7.8% | -13.8% | ? | . | . | -0.9%
13 | COc1ccc(C(=O)Nc2ccc(NC(=O)c3cccs3)cc2)cc1OC | . | . | 2.1% | . | . | -26.7% | -1.2% | 1.7%[46.1 µM]
14 | CC(=O)c1ccc(NC(=O)CC23CC4CC(C2)CC(n2nnc(C)n2)(C4)C3)cc1 | . | 5.0% | -14.4% | -8.1% | ? | . | . | -22.1%[46.1 µM]
15 | Cc1ccc(N(CC(=O)Nc2cc(C)ccc2C)S(C)(=O)=O)cc1 | 20.7% | -1.7% | -11.9% | -19.0% | -2.6%[46.1 µM] | . | . | -6.0%[46.1 µM]
16 | COc1ccc(C(=O)N/C(=C\c2cn(C)c3ccccc23)C(=O)NCCCN2CCOCC2)cc1OC | -8.0% | -3.7% | 5.2% | -5.0% | 11.2%[46.1 µM] | . | . | 4.0%[46.1 µM]
17 | N#Cc1ccccc1S(=O)(=O)N1CCN(C(=O)c2ccc(-n3cncn3)c([N+](=O)[O-])c2)CC1 | . | 1.6% | -12.8% | -9.9% | -10.8%[46.1 µM] | . | . | -5.5%
18 | CCn1c(SCC(=O)Nc2cc(C)on2)nc2c(c1=O)SCC2 | 8.7% | ? | -16.9% | 2.9% | 13.1% | . | . | -8.4%
19 | COC(=O)c1cc(NC(=O)CSc2nnc(N)s2)ccc1Cl | 8.7% | 1.7% | 10.6% | -2.0% | -14.4%[46.1 µM] | . | . | -1.6%[46.1 µM]
20 | COc1ccccc1CNS(=O)(=O)c1ccc(-n2cnnn2)c(OC)c1 | 5.6% | 1.4% | 26.2% | 13.9% | -4.3%[46.1 µM] | . | . | -11.7%[46.1 µM]
21 | CS(=O)(=O)N(CCc1ccccc1)CC(=O)NCc1ccncc1 | 5.3% | -1.3% | . | 13.4% | 10.4% | 7.1% | 9.9% | 13.5%
22 | CCOc1ccc(NC(=O)CSc2ncc3c(n2)-c2ccccc2N(Cc2ccccc2C)S3(=O)=O)cc1 | . | . | -7.0% | . | . | 0.4% | 0.2% | ?
23 | CS(=O)(=O)N(CCc1ccccc1)CC(=O)Nc1ccc(Br)cc1F | -14.7% | -6.0% | 36.4%[activator] | -12.0% | . | . | . | .
24 | Cc1ccc(C)c(C(=O)n2cnnc2N)c1 | 1.5% | -4.4% | 2.6% | 27.1% | ? | -3.3% | -4.2% | 11.9%
25 | CCOC(=O)Cc1csc(NS(=O)(=O)c2ccc(OC)cc2)n1 | ? | -0.5% | 18.7% | 11.4% | 3.3% | . | . | -8.0%
26 | COc1ccc(OC)c(NC(=O)Nc2cccc(Cn3cccn3)c2)c1 | -10.9% | 4.7% | 5.3% | -0.7% | ? | -21.8% | -4.3% | -19.6%
27 | CCc1ccccc1NC(=O)c1ccccc1Sc1ccc([N+](=O)[O-])cc1Cl | 8.5% | -12.8% | 0.0% | 7.4% | -8.3% | 9.1% | -7.3% | 7.8%
28 | C/C(Cl)=C\Cn1c(=O)c2c(nc3n2CCS3)n(C)c1=O | -3.7% | -2.7% | -14.4% | 12.5% | 1.2%[46.1 µM] | -8.4% | -1.7% | -2.2%
29 | CC1CCN(C(=O)C(=O)Nc2sc3c(c2C(N)=O)CC(C)(C)OC3)CC1 | 5.7% | 2.4% | -4.5% | 6.5% | . | . | . | .
30 | Cc1c(C(=O)N2CCOCC2)c(S(=O)(=O)Nc2cccc(F)c2)c(C)n1C | ? | 11.1% | 62.7%[activator] | -1.7% | 7.3%[46.1 µM] | . | . | 16.2%[46.1 µM]
31 | CCn1nnc(NC(=O)c2ccc(C(C)(C)C)cc2)n1 | -75.8% | -3.6% | 0.2% | 41.8% | 1.4% | 10.7% | -1.2% | 24.8%
32 | COc1ccc(NC(=O)CNC(=O)c2ccco2)cc1 | -1.8% | 7.5% | 50.9%[activator] | 6.7% | 23.7% | . | . | ?
33 | CC1=Nc2ccccc2/C1=C\c1nc(-c2ccc(F)cc2)oc1O | -1.2% | -8.0% | 1.8% | 4.0% | -9.7% | 12.7% | -4.2% | 0.8%
34 | Nc1nc(SCCO)[nH]c(=O)c1NC(=O)c1ccccc1F | . | 1.5% | -4.3% | -3.9% | 21.8%[46.1 µM] | . | . | 19.4%
35 | CCn1c(=O)c(-c2cc(=O)[nH][nH]2)c(O)c2ccccc21 | . | 0.8% | -10.6% | -17.1% | ? | . | . | -15.0%
36 | O=C(O)CCC(=O)Nc1ccc(Cc2ccc(NC(=O)CCC(=O)O)cc2)cc1 | 3.0% | -2.6% | 8.4% | 22.7% | -4.8% | 3.7% | 5.3% | 13.1%
37 | O=C(O)C1C2C=CC(O2)C1C(=O)NCCCn1ccnc1 (stereo not given) | ? | 0.0% | . | . | 4.3% | -4.0% | 2.0% | .
38 | CC(C)c1ccc(NC(=O)CSc2nnc(OC(=O)N(C)C)n2C2CC2)cc1 | 2.3% | -3.5% | -19.7% | 10.3% | . | . | . | .
39 | COc1ccc(Nc2nc(N)nc(CN(C)C3CCCCC3)n2)cc1 | -7.8% | 1.2% | 15.8% | 6.5% | 19.0% | 1.0% | 3.2% | 5.8%
40 | CCn1nc(C)c(CNC(=O)c2cc(COc3ccc(F)cc3Cl)on2)c1C | -9.7% | -0.3% | ? | 5.3% | . | . | . | .

[41] CCn1cc([N+](=O)[O-])c(C(=O)N2CCCC2)n1
[42] Cn1cnc(S(=O)(=O)Nc2cc(C(F)(F)F)ccc2N2CCOCC2)c1
[43] CCCC(C(=O)OCC)P(=O)(c1ccccc1)c1ccccc1 (stereo not given)
[44] CN(Cc1cnn(C)c1)Cc1nc(Cc2ccccc2Cl)no1
[45] COc1ccccc1NCCC(=O)OCC(=O)Nc1ccc(Cl)cn1
[46] COC(=O)c1c(C)[nH]c(C(=O)/C=C/c2ccccc2F)c1C
[47] CN1CCN(NS(=O)(=O)c2cccs2)CC1
[48] COc1ccc(CCNC(=O)Cc2c(C)c3c(cc(C)c4c(C)c(C)oc43)oc2=O)cc1

screen / no.	41	42	43	44	45	46	47	48
NS1 function inh	2.8%	-2.8%	?	-0.7%	7.6%	0.6%	11.4%	.
SARS PLpro yeast	7.0%	0.0%	6.6%	-0.6%	-3.8%	-0.1%	3.8%	.
2A StopGo	-7.5%	5.5%	9.6%	5.0%	2.8%	20.5%	1.4%	-3.6%
RE007 growth inh	10.1%	70.2%	0.1%	-7.2%	-0.1%	1.2%	-11.3%	.
Marburg entry inh	0.1%	?	-4.3%	0.1%[46.1 µM]	-9.5%[46.1 µM]	?	3.7%	1.0%[46.1 µM]
Cruzain inh noDet	8.3%	.	-2.7%	.	-7.8%	.	12.3%	5.1%
Cruzain inh Det	2.9%	.	2.2%	.	-0.4%	.	1.6%	2.9%
LASV entry inh	9.1%	12.3%[46.1 µM]	28.7%	-16.3%[46.1 µM]	-2.4%	?	?	6.9%[46.1 µM]
